Beta apoptosis = beta cell apoptosis inhibition; protection from apoptosis, % (test concentration not listed); INS-1E cytokine-induced death, ATP luminescence, 48 h; percent of positive-control rescue, neutral wells zero; 300,000 tested, 0.8% active; AID 435005;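 active means all replicates at 75% or more, or half of them and the mean; inconclusive means half reach 75% but not the mean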;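 further: 0% = cytokine-treated negative control wells and 100% = positive control rescue; higher means more ATP so stronger rescue from cytokine killing; wells of about 40 µL received 100 nL stock; the first replicate is given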
T cruzi repl = T. cruzi replication inhibition; T. cruzi beta-gal in NIH3T3, luminescence, 90 h; 300,000 tested, 1.4% active; inhibition, % (no concentration beside the values);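 active means mean inhibition across valid replicates above about 55%, limit read from the data; inconclusive means mean below that limit but half or more replicates reach it; inactive means mean below it, under half of replicates reach it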;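 further: signal also drops with host cell toxicity which is not excluded here; 0% = plate median of DMSO wells and 100% = zero luminescence signal; higher percent means less beta-gal luminescence so fewer parasites; stock transfer was 50 nL into about 50 µL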
RanGTP-Imp inh = inhibitors of RanGTP-importin-beta interaction, primary screen, biochemical, FRET, CFP-Ran, YFP-importin-beta, homogeneous; 300,000 tested, 1.1% active; inhibition, % (no concentration beside the values); cell-free CFP-Ran/YFP-importin-beta FRET ratio;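 active means most replicates above 15%; inconclusive means exactly half above 15%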;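 further: 0% = DMSO wells and 100% = Ran loaded with GDP instead of GTP; wells of about 40 µL received 100 nL stock; the first replicate is given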
rRNA inh HTS = selective bacterial rRNA inhibition in E. coli; GFP signal change (wild-type ribosome), % (test concentration not listed); 350,000 tested, 1.6% active; E. coli WT GFP vs humanized-ribosome RFP mutants, fluorescence, 24 h; hits give low values; DMSO median 0, no signal -100;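 active means significant combined selectivity score with lowered wild-type GFP, culture density cut under 30%, mutant RFP and density less affected; inactive means any of these conditions unmet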; further: one replicate is shown; some compounds called inactive have numbers as strong as hits
AF4-AF9 inh = MLL-AF4/AF9 protein interaction inhibition; inhibition, % at 10 µM; AlphaScreen, biotin-AF4 peptide binding to FLAG-AF9; 350,000 tested, 0.47% active; P42568;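 active means every replicate reaching a set inhibition limit, whatever the replicate mean, cut at about 25% in these data; inconclusive means mean inhibition reaches that limit but some replicates miss it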;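 further: 0% = plate neutral control median and 100% = total signal loss; the record names both 10 and 1 µM as test concentration; the first replicate is given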
Target sequence (P42568 whole entry, looked up): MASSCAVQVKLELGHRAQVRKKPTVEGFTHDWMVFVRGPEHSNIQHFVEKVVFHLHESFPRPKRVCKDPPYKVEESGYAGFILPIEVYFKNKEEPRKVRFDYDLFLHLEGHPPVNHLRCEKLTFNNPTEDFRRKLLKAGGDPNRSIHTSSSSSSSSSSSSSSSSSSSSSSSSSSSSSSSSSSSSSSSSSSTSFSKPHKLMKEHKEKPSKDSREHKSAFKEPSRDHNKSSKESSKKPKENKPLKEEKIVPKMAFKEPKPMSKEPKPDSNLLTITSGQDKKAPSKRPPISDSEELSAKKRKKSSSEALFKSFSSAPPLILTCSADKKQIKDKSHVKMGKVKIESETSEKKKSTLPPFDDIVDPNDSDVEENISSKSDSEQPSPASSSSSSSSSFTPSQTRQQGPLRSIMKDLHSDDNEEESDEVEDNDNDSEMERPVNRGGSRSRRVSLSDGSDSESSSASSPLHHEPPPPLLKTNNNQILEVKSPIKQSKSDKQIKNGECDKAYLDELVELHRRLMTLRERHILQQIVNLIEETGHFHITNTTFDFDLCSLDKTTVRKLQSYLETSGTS
Vif TR-FRET = inhibitors of Vif binding to APOBEC3G peptide, primary screen, biochemical, TR-FRET, GST-Vif 1-94, biotin-A3G peptide, dose response retest (AID 1117319). TR-FRET GST-Vif / biotin-A3G peptide binding; higher % means a stronger effect; test concentration not given here; strong numbers were not always called active. inhibition, %, or IC50 in µM where a hit was titrated. 260,000 tested, 0.57% active;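 active means above the screen mean plus three standard deviations and confirmed in dose response; inconclusive means results disagree or hit not tested in dose response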;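 further: Vif residues 1-94 fused to GST binding biotinylated APOBEC3G peptide 110-148; 0% = full assay without inhibitor and 100% = GST in place of GST-Vif; retest series ran down from 100 µM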
Calb FLC = C. albicans growth modulation with fluconazole. C. albicans CaCi-2 (fluconazole-resistant clinical isolate) + fluconazole, Alamar Blue growth, 48 h. AID 1979. 300,000 tested, 0.57% active. growth inhibition, % (no concentration beside the values);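 active means most replicates above 75%; inconclusive means exactly half above 75%; inactive means most below 75%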;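 further: all wells also contain fluconazole at 8 µg/ml as a sub-toxic cotreatment; 0% = median of DMSO wells and 100% = median of geldanamycin control wells; wells of about 8 µL received 7.5 nL stock; the first replicate is given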
A1 inh = inhibitors of the anti-apoptotic protein A1, read as caspase activation; caspase activation, % (test concentration not listed); MEF A1-2A-BIM cells, Caspase-Glo 3/7 luminescence, 3 h; percent of clofoctol response, vehicle zero; AID 2462; 330,000 tested, 0.066% active;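 active means over half of replicate activation scores above 10%, or exactly half above 10 with the replicate mean above 10; inconclusive means replicate mean below 10 yet half the replicates above 10; inactive means over half of replicates below 10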;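 further: wells of about 30 µL received 50 nL stock; many hits fall short of the cut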
rRNA inh HTS OD600 = also measured in rRNA inh HTS; calls as there; OD600 change, %; measured here: OD600 growth;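 optical density of the mix in the first replicate; 0 = DMSO median and -100 = no signal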
rRNA inh HTS RFP = also measured in rRNA inh HTS; calls as there; RFP signal change, %; measured here: RFP humanized mutant strains;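 first replicate; 0 = DMSO median and -100 = no signal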
An asterisk follows results filed as active; ? = inconclusive; · = no result given; & = joins results of further samples. These rows are one share of the data; count on the stated rates, not on these rows.

SMILES | Beta apoptosis | T cruzi repl | RanGTP-Imp inh | rRNA inh HTS | rRNA inh HTS OD600 | rRNA inh HTS RFP | AF4-AF9 inh | Vif TR-FRET | Calb FLC | A1 inh
CCc1ccc(OCC(=O)Nc2ccc(-c3cc4ccccc4oc3=O)c(OC)c2)cc1 | -6.0 | -4.2 | 1.1 | · | · | · | · | · | 2.3 | -1.0
COc1ccc(N2CCN(C(=O)CNC(=O)c3nn(-c4ccc(OC)cc4)c(=O)c4ccccc34)CC2)cc1 | 4.8 | 1.0 | -1.0 | -7.1 | -0.5 | 0.8 | -5.2 | · | 15.9 | 0.1
COc1ccc(C(=O)NNC(=O)c2cccc(F)c2)cc1 | 1.4 | 1.6 | 0.0 | -23.2* | -11.5* | -0.6* | 1.1 | -1.8% | ? | -1.4
O=[N+]([O-])c1ccc(CN2CCN(c3nc4ccccc4s3)CC2)cc1 | -3.2 | -6.5 | -5.0 | 2.0 | 1.6 | 0.4 | -2.4 | -5.3% | 1.0 | 0.9
Cc1cc(C)cc(NC(=O)C2CCCN(S(=O)(=O)c3ccc4[nH]c(=O)ccc4c3)C2)c1 (centres undefined) | 10.6 | 2.8 | 3.0 | 2.6 | 3.8 | -1.2 | -1.1 | · | 3.1 | 2.3
CC(C)CN(C(=O)COC(=O)c1ccc(Br)o1)c1c(N)n(Cc2ccccc2)c(=O)[nH]c1=O | 3.2 | -5.4 | 2.3 | 12.4 | 9.3 | 3.2 | 0.5 | -1.5% | -0.5 | -0.1
COc1ccc(NS(=O)(=O)c2ccc(SC)cc2)c(OC)c1 | 12.7 | -8.2 | 2.1 | · | · | · | · | -0.3% | 3.4 | -0.5
COc1ccc(C(=O)NNC(=O)c2cc(C)[nH]n2)cc1 | 4.6 | 8.6 | 0.9 | · | · | · | -1.7 | · | 18.9 | 0.4
COc1cccc2[nH]c3c(N4CCc5ccccc5C4)ncnc3c12 | 28.8 | 31.5 | 13.0 | · | · | · | · | -4.4% | -0.9 | -0.2
S=C(NCCc1ccccc1)Nc1ccc(Cl)cc1Cl | 5.7 | 10.3 | 3.4 | · | · | · | · | 6.7% | -1.3 | 0.5
OCCC1CN(Cc2cccn2-c2nccs2)CCN1Cc1ccccc1 (centres undefined) | -1.8 | 5.3 | -2.5 | 7.9 | -9.7 | 0.1 | 7.0 | -4.4% | -11.6 | -0.1
O=C(NCc1ccccc1F)C1CCN(C(=O)NCc2ccccc2)CC1 | 0.0 | -3.5 | 0.5 | · | · | · | · | 1.1% | 3.3 | 0.2
O=C(c1ccc(OC(F)(F)F)cc1)c1ncc[nH]1 | -1.8 | -10.9 | ? | -1.4 | 7.2 | -0.8 | · | -0.5% | -10.7 | -3.8
COc1ccccc1CNC(=O)CSc1ccc(-c2cccc([N+](=O)[O-])c2)nn1 | 4.5 | 27.0 | -0.2 | 5.0 | 4.5 | -3.1 | 0.1 | · | 4.9 | 0.8
CCOC(=O)N1CCN(C(=O)CSc2nnc(Cc3cccn3C)n2CCc2ccccc2)CC1 | -3.6 | 11.7 | 1.7 | · | · | · | · | 0.0%&4.9% | -27.9 | 0.6
O=C(NC(Cc1ccccc1)C(=O)O)/C(=C/c1ccc([N+](=O)[O-])cc1)NC(=O)c1ccccc1Br (centres undefined) | -0.5 | -12.3 | 2.3 | 5.5 | 3.8 | -1.9 | -2.6 | 25.7% | 10.3 | 0.5
COc1cc(OC)c(NC(=O)c2ccoc2C)cc1Cl | -1.3 | 8.3 | -2.1 | · | · | · | · | 0.2% | 8.9 | 0.3
COc1cc2nc(CSc3nc(-c4ccc(F)cc4)cs3)[nH]c(=O)c2cc1OC | -5.6 | -3.1 | 4.0 | · | · | · | · | 22.7% | 25.1 | 0.0
Cc1snc(SCC(=O)c2ccc(F)cc2)c1C#N | -12.1 | 30.8 | 1.3 | -9.6 | -23.8 | -2.8 | 1.1 | -5.2% | -7.6 | -1.8
CCC(=O)N(c1nnc(SCC(=O)c2ccc[nH]2)s1)C1CC1 | 0.9 | · | · | -3.8 | 10.1 | 0.7 | 0.0 | 4.6% | · | -0.7
CC(=O)c1c(C)[nH]c(C(=O)CN2C(=O)NC(CCc3ccccc3)C2=O)c1C (centres undefined) | -3.2 | -11.0 | 1.2 | -3.4 | 2.3 | -0.3 | 2.9 | 11.1% | 37.8 | -0.5
O=C(Nc1c(F)cccc1F)C1CCN(C(=O)c2cccs2)CC1 | 1.1 | -9.4 | 7.6 | 5.0 | 6.4 | 5.0 | 1.9 | 4.7% | -16.4 | 0.5
Cn1cccc1/C=N/NC(=O)c1sc2cc(Cl)ccc2c1Cl | 41.7 | -11.4 | 1.3 | -21.2 | -8.5 | 21.0 | -0.1 | · | 15.1 | -2.9
CCCCN(C(=O)c1ccc(N2CCCC2=O)cc1)c1c(N)n(CCC)c(=O)[nH]c1=O | -2.8 | · | · | -1.2 | 0.5 | 0.1 | 2.5 | 3.5% | · | -0.4
COc1ccc(CNC(=O)C2CCN(S(=O)(=O)c3ccc(-c4nn[nH]n4)cc3)CC2)cc1 | -5.9 | -10.5 | -1.7 | · | · | · | · | 1.7%&3.8% | -1.3 | 0.7
Cc1ccc(S(=O)(=O)Nc2c(C)n(C)n(-c3ccccc3)c2=O)c(C)c1 | 1.4 | -5.5 | 1.1 | 10.5 | 1.4 | 3.0 | -3.0 | · | -6.7 | -0.2
CCOC(=O)c1ccc(NC(=O)c2cc(C)nc3ccccc23)cc1 | 3.0 | -5.2 | 3.8 | 20.2 | 25.5 | 0.0 | 1.0 | · | 10.3 | 0.5
OC(CNCc1ccco1)Cn1c2ccc(Br)cc2c2cc(Br)ccc21 (centres undefined) | 2.8 | 42.0 | -0.6 | · | · | · | · | -4.6% | 5.3 | 1.1
COc1ccc(C2=NO[C@@H]3C(=O)N(Cc4ccccc4)C(=O)[C@H]23)c(OC)c1 | -4.0 | -2.8 | -1.3 | 8.5 | 7.3 | 1.7 | -0.5 | -1.3% | 6.7 | 0.6
O=C(CSc1ncn[nH]1)NCCCc1ccccc1 | -8.0 | -9.2 | 3.1 | · | · | · | · | 0.5% | 0.0 | 1.1
Cc1cccc(-n2c(C)n[nH]c2=S)c1 | 10.6 | 15.7 | -1.3 | 4.1 | 8.7 | -3.0 | -11.0 | 17.4% | -10.5 | -1.1
COc1cc2c(C(=O)NC3CCCCCC3)cn(C)c(=O)c2cc1OC | -5.4 | 15.9 | -1.1 | · | · | · | · | -7.4% | -2.4 | 1.1
CC1Cc2ccccc2N1Cc1nc2scc(-c3cccs3)c2c(=O)[nH]1 (centres undefined) | 0.6 | -10.0 | 3.4 | · | · | · | · | 20.5% | 2.2 | 0.2
Clc1ccc2nc(CSc3nnc4ccccn34)cn2c1 | -5.6 | -24.7 | 2.4 | · | · | · | · | 1.8% | 4.8 | -0.8
Cc1ccc(N2CC(C(=O)NCCN3CCOCC3)CC2=O)cc1C (centres undefined) | -3.6 | -9.4 | 0.8 | 5.0 | 7.4 | -0.5 | -4.3 | · | -6.5 | 0.9
Cc1nc2ncnn2c(N2CCCC(C(=O)Nc3ccccc3Br)C2)c1C (centres undefined) | -3.6 | 8.4 | -4.6 | 3.3 | -1.7 | 0.8 | 0.0 | 0.4% | -20.8 | -1.0
CCOc1ccccc1C(=O)Nc1nnc(SCC(=O)Nc2cc(C)on2)s1 | -3.1 | 2.4 | -0.8 | 3.1 | 7.4 | -0.6 | -15.6 | -3.5% | 14.4 | -1.4
Cc1ccc(C(=O)N=c2sccn2C)cc1S(=O)(=O)N1CCOCC1 | · | 9.1 | 2.4 | 3.1 | 5.8 | -0.7 | -0.9 | -2.1% | 3.6 | -0.1
Cc1ccccc1C(C(=O)NC1CCCCC1)N(C(=O)c1ccccn1)c1cccnc1 (centres undefined) | -7.5 | 2.9 | 1.5 | 2.6 | 8.6 | -0.7 | 2.3 | -1.1% | -2.6 | -0.3
CC(C)(C)c1ccc(NS(=O)(=O)c2ccc(N)cc2)cc1 | 8.8 | -1.3 | -2.3 | -10.2 | -6.2 | -11.0 | 3.5 | 3.2% | -19.8 | 0.9
COc1ccc(N2CCN(C(c3cccs3)C(C)NS(C)(=O)=O)CC2)cc1 (centres undefined) | 6.1 | -33.3 | -1.0 | 4.3 | 2.3 | -0.9 | 3.9 | 1.1% | -13.1 | 0.8
COC(=O)CN(c1nc(C)cc(OC)n1)S(=O)(=O)c1ccc(C)cc1 | -4.3 | 5.5 | 6.5 | · | · | · | · | 29.8% | 29.2 | 0.9
O=[N+]([O-])c1cc(C(F)(F)F)ccc1NCCc1c[nH]c2ccc(O)cc12 | -6.8 | -6.3 | -2.0 | · | · | · | · | 0.6% | 27.1 | 0.2
COc1ccc(CN2CCN(S(=O)(=O)c3ccccc3)CC2)cc1Br | 4.6 | 6.6 | 6.4 | · | · | · | · | 20.8% | 1.8 | -0.6
CC(CNC(=O)COC(=O)c1ccco1)c1ccccc1 (centres undefined) | -6.1 | · | · | · | · | · | -3.2 | 2.5% | · | -0.2
Cc1nnsc1C(=O)NC1CCCc2c1cnn2-c1ccc(F)cc1F (centres undefined) | 49.4 | -29.2 | 0.9 | 0.3 | 4.7 | -3.4 | -1.7 | · | -4.6 | 0.1
Cc1nn(CC#N)c(=O)n1-c1ccc(F)cc1 | 2.0 | -3.7 | 1.8 | · | · | · | · | 0.4% | -2.1 | 0.2
COC(=O)/C=C1/SC(=NC(=O)c2ccc(F)cc2)NC1=O | -2.9 | -32.9 | 4.5 | 4.4 | 5.4 | -2.6 | -1.7 | 0.9% | -1.6 | -0.2
CCN(CC(=O)Nc1c(F)cccc1F)C(=O)CCc1nc2ccccc2c(=O)[nH]1 | 1.4 | 0.5 | ? | 2.1 | 9.4 | -1.0 | -8.6 | 0.2% | -1.6 | 0.4
Cc1ccc(C(=O)c2c3ccc(C(F)(F)F)cc3[n+]([O-])n2CCCN)cc1 | 2.2 | -13.5 | -2.5 | -34.5 | -62.2 | -0.9 | 14.7 | · | 26.9 | 0.2
Nc1cc(=O)[nH]c(SCc2nc3ccccc3n2Cc2ccccc2)n1 | 8.6 | -3.6 | 10.6 | 9.6 | 10.0 | 3.3 | 6.6 | 1.7% | -19.6 | -0.1
Cc1nc2ncnn2c(C)c1CCC(=O)N1CCN(c2ccccn2)CC1 | 2.6 | -3.5 | 1.3 | 3.6 | 19.0 | -0.4 | · | 8.4% | -6.8 | -0.1

Arranged by the number under rRNA inh HTS (smallest number first): three of the compounds above.
smiles,RanGTP-Imp inh,rRNA inh HTS,rRNA inh HTS OD600,rRNA inh HTS RFP,AF4-AF9 inh,Vif TR-FRET
CCN(CC(=O)Nc1c(F)cccc1F)C(=O)CCc1nc2ccccc2c(=O)[nH]1,?,2.1,9.4,-1.0,-8.6,0.2%
Cc1nc2ncnn2c(C)c1CCC(=O)N1CCN(c2ccccn2)CC1,1.3,3.6,19.0,-0.4,·,8.4%
Nc1cc(=O)[nH]c(SCc2nc3ccccc3n2Cc2ccccc2)n1,10.6,9.6,10.0,3.3,6.6,1.7%
